Bioassay records as filed in PubChem.
Mtb bLac sens: beta-lactam sensitization of Mtb H37Rv, H37Rv | actives 0.27% (n = 330,000) | AID 434955, 2010 | inhibition, % at 25 µM | M. tuberculosis H37Rv growth with meropenem, percent inhibition; hits of this screen are not shown here;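 active means about 74% or more and at least 40 points above the plate without the antibiotic, then above 30% in a dose series; inconclusive means first-round hits that could not be retested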;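 further: growth measured after seven days incubation then overnight dye step; 0% = bacteria only wells and 100% = bacteria with antibiotic; twin plates without the antibiotic show which effects depend on it; some results filed as inactive read as strong as hits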
Mtb H37Rv: M. tuberculosis H37Rv growth inhibitors, H37Rv strain (AID 1626); M. tuberculosis H37Rv growth inhibition; higher % means a stronger effect; one-dose inhibition, % at 10 µM; IC50 in µM for titrated hits; actives 0.95% (n = 220,000);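 active means confirmed in a dose series; inconclusive means inhibition above 80% but not taken into the dose series; inactive means below 80% or under 30% at every dose of the series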;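 further: bacteria incubated seven days before Alamar blue readout; 0% = bacteria only wells and 100% = bacteria with antibiotic wells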
Arbovirus inh: antivirals against arbovirus infection, primary screen, cell-based, full library, 10K replicate subset. arbovirus infection cell-based antiviral screen. AID 1251, 2008. actives 0.37% (n = 200,000). inhibition, % at 10 µM;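 active means inhibition from about 30%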;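 further: bluetongue infection of BSR cells; cell survival read as ATP light after 72 h; 0% = infected wells without compound and 100% = uninfected wells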
YopH PTP inh: YopH tyrosine phosphatase inhibitors, primary screen, biochemical, fluorescence Ex485/Em525; inhibition, %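 (about 10 µM by stock and volumes)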; YopH tyrosine phosphatase [Yersinia enterocolitica]; actives 0.16% (n = 140,000); AID 898, 2007;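 active means inhibition of 50% or more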;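 further: controls were vehicle for no effect and minimum signal wells for full effect; inactives centre near -20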
RecA intein inh: Mtb RecA intein splicing inhibitors, primary screen, biochemical, fluorescence, HTS. actives 0.75% (n = 290,000). AID 2221, 2009. Protein RecA (Mycobacterium tuberculosis (strain ATCC 25618 / H37Rv)), P9WHJ3. cell-free RecA intein splicing. inhibition, %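 (about 9 µM by stock and volumes)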; in the data active means inhibition above about 30%; inconclusive means no clear call, values can overlap the other calls;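 further: 0% = vehicle wells and 100% = reference inhibitor control wells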
Target sequence (P9WHJ3 whole entry, looked up): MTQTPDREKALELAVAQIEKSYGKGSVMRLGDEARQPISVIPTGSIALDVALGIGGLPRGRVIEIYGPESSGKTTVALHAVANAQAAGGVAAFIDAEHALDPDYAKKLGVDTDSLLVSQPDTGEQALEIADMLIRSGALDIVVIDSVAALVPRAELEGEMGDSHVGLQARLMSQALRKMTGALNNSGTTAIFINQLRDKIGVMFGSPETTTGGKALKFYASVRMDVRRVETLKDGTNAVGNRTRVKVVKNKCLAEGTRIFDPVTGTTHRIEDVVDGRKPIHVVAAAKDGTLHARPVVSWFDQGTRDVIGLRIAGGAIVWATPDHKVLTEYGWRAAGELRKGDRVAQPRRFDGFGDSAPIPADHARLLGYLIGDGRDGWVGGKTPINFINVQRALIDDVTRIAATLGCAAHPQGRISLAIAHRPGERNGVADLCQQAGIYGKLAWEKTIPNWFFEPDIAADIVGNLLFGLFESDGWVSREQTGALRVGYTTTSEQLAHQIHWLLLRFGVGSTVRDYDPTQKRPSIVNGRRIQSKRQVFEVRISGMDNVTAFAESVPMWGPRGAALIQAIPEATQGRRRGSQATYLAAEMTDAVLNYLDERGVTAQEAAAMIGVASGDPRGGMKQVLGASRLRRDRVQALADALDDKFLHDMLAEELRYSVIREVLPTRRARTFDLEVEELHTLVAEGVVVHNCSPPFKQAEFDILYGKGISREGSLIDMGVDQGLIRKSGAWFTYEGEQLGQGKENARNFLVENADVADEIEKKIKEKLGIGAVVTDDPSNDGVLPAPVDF
Arbovirus inh repeat: further read-out of Arbovirus inh, marked with its call; inhibition, %; measured here: 10K subset replicate screen; many hits read low in the repeat;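 first of two repeat runs on a subset; 0% = infected and 100% = uninfected wells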
An asterisk follows results filed as active; u = inconclusive; x = not tested or not shown; & = joins results of further samples. Not all compounds are listed; rates above refer to the full screens.

SMILES | Mtb bLac sens | Mtb H37Rv | Arbovirus inh | YopH PTP inh | RecA intein inh | others
COc1cccc(C(=O)NC(=S)Nc2cccnc2)c1 | 1 | 3% | 2 | -18 | 2.7
C(=N\n1cnnc1)/c1cccc(OCCOc2ccccc2)c1 | -5 | 12% | -4 | 18 | x | Arbovirus inh repeat=-6
Cc1cc(OCC(=O)Nn2cnnc2)c(C)cc1Br | -6 | 0% | -1 | -30 | 0.3
Cc1ccsc1/C=N/n1c(-c2cccnc2)n[nH]c1=S | 2 | -7% | -3 | -25 | 1.3
CCOc1cc(NC(=S)NCC2CCCO2)c(OCC)cc1NC(=O)c1cccc(C)c1 (centres undefined) | -14 | 0% | 0 | -28 | 1.9
COc1ccc(C(=O)NCC(=O)OCC(=O)N2CC(C)CC(C)C2)cc1 (centres undefined) | 2 | 7% | -5 | -11 | -1.8
CC1(C)Cc2c(C#N)c(NCC3CCCO3)nc(-c3ccco3)c2CO1 (centres undefined) | 1 | 9% | 9 | -4 | -6.4
Cc1cc(C)cc(NC(=O)CSc2nnc(-c3ccccc3)n2N)c1 | -2 | 4% | -5 | -60 | 1.6 | Arbovirus inh repeat=-5
COC(=O)c1cn(NC(=O)Cc2cccc(OC)c2)c(=O)c2ccccc12 | 8 | 4% | -6 | -12 | -2.3
O=C1N=C(N2CCCCC2)S/C1=C\c1ccccc1F | 68 | x | x | x | -0.5
O=C(O)CC(=O)Nc1cc(Cl)ccc1O | -12 | 4% | 4 | -4 | -3.1
Cc1oc2cc(O)ccc2c(=O)c1-c1ccccc1 | 12 | 8% | -10 | x | -0.1
CCCC1OC2CC3C4CCC5=CC(=O)C=CC5(C)C4C(O)CC3(C)C2(C(=O)O)O1 (centres undefined) | -6 | x | x | x | -0.9
O=[N+]([O-])c1ccc(N2CCN(C(=S)NCc3ccc(Cl)cc3)CC2)cc1 | 98 | u | 10 | x | x
C[N+]1(CCCCSc2ccc(O)cc2)CCCCC1 | -4 | -5% | 7 | 9 | -4.1
O=C(CSc1cnc2ccccc2n1)NC1CCCC1 | 11 | -9% | 6 | -9 | 0.0
Cc1ccc(OC/C(=N\O)C(C)(C)C)c([N+](=O)[O-])c1 | -6 | 0% | -1 | x | 1.4
O=C(c1cc2cc(Br)ccc2o1)N1CCCCC1 | 5 | 5% | -4 | x | 0.0
O=C(NC(Oc1ccccc1)C(Cl)(Cl)Cl)c1ccccc1 (centres undefined) | 5 | -6% | 10 | -34 | 0.8
CC/C(C)=N\Nc1nc(-c2cc3cc(OC)ccc3oc2=O)cs1 | -3 | -5% | x | x | -6.4
CCC/C(O)=N\S(=O)(=O)c1ccc(N=NN(C)C)cc1 | -10 | 1% | -1 | -11 | 0.2
COc1ccc(S(=O)(=O)N2CCN(c3ccccn3)CC2)cc1OC | -14 | -3% | 18 | -26 | 0.2
Cc1cc(C)cc(NCCC#N)c1 | -5 | -2%&-9% | 2 | -19 | 3.1
CC(C)CNC(=O)C(=O)NCC1CCCN1S(=O)(=O)c1cccs1 (centres undefined) | 1 | x | x | x | -1.2
COc1ccc(Cl)cc1NC(=O)NN1CCN(C)CC1 | -10 | x | x | x | -1.3

Gathered by group, the entries above with a Cl atom
SMILES | Mtb bLac sens | Mtb H37Rv | Arbovirus inh | YopH PTP inh | RecA intein inh | others
O=C(O)CC(=O)Nc1cc(Cl)ccc1O | -12 | 4% | 4 | -4 | -3.1
O=[N+]([O-])c1ccc(N2CCN(C(=S)NCc3ccc(Cl)cc3)CC2)cc1 | 98 | u | 10 | x | x
O=C(NC(Oc1ccccc1)C(Cl)(Cl)Cl)c1ccccc1 (centres undefined) | 5 | -6% | 10 | -34 | 0.8
COc1ccc(Cl)cc1NC(=O)NN1CCN(C)CC1 | -10 | x | x | x | -1.3

The main list resumes; the 3 compounds before the break are reprinted first.
SMILES | Mtb bLac sens | Mtb H37Rv | Arbovirus inh | YopH PTP inh | RecA intein inh | others
Cc1cc(C)cc(NCCC#N)c1 | -5 | -2%&-9% | 2 | -19 | 3.1
CC(C)CNC(=O)C(=O)NCC1CCCN1S(=O)(=O)c1cccs1 (centres undefined) | 1 | x | x | x | -1.2
COc1ccc(Cl)cc1NC(=O)NN1CCN(C)CC1 | -10 | x | x | x | -1.3
Cn1c(=O)n(C)c2cc(S(=O)(=O)NCC(=O)O)ccc21 | 1 | -3% | 1 | x | -1.1
Cc1nn(Cc2cccc(C(=O)Nn3cc([N+](=O)[O-])cn3)c2)c(C)c1[N+](=O)[O-] | 27 | -10% | 2 | -13 | 1.3
COc1cc(Oc2ccccc2)nc(N)n1 | -6 | x | x | x | 4.4
COc1ccc(-n2c(SCC(=O)Nc3nccs3)nc3c(c2=O)SC(C)C3)cc1 (centres undefined) | -5 | 6% | 14 | 13 | -0.1 | Arbovirus inh repeat=-1
CC1CCCCN1C(=O)/C=C/c1ccccc1[N+](=O)[O-] (centres undefined) | 3 | -2% | -2 | x | -2.1
Cc1sc(NC(=O)C2C3C=CC(C3)C2C(=O)O)c(C(N)=O)c1-c1ccc(C(C)C)cc1 (centres undefined) | 0 | -4% | 3 | -12 | 1.6
C/C(CS(=O)(=O)c1ccc(Cl)cc1)=N/NC(N)=S | 0 | -7% | 1 | x | x
Cc1cc(C)n(C(=O)CNC(=O)c2ccccc2Br)n1 | 2 | x | x | x | -1.0
O=C1C2C3C=CC(C3)C2C(=O)N1/N=C/c1cn(Cc2ccc(F)cc2)c2ccccc12 (centres undefined) | 61 | 4% | 0 | -26 | 5.6
CCCOc1ccc(Br)cc1/C=N/NC(=O)c1cc(OC)c(OC)c(OC)c1 | 0 | -3% | -3 | -16 | -1.5
COc1ccc2ccc(=O)oc2c1CC=C(C)C | -1 | 0% | -5 | -25 | 1.0
CS(=O)(=O)c1ccccc1-c1nc(-c2ccc(C(F)(F)F)cc2)no1 | -2 | 12% | 11 | -6 | 6.4
CSc1nnc(-c2cccs2)n1-c1ccccc1 | -3 | -3% | 6 | -32 | 7.3
Cc1c(N=Nc2c(O)n(Cc3ccccc3)c(=O)[nH]c2=O)c(=O)n(-c2ccccc2)n1C | -3 | -6% | -39 | -18 | 1.7
COCCCNC(=O)c1ccc2c(c1)OCO2 | -2 | -1% | 4 | -18 | 4.0
Cc1ccc(NS(=O)(=O)c2cc(OCC(N)=O)c(C)cc2Cl)cc1C | 4 | 0% | 9 | -37 | 3.3
CN(C)CCN(C(=O)COc1ccc(Cl)cc1)c1nc2cc3c(cc2s1)OCO3 | 6 | x | x | x | 0.2
CCCCCc1c(O)nc(SCC(=O)NCC2CCCO2)[nH]c1=O (centres undefined) | -3 | -8% | 8 | 2 | -1.0
COc1ccc(-c2cc(=O)oc3c(C)c(OCC(=O)Nc4cccnc4)ccc23)cc1 | -6 | x | x | x | 0.0
C/C(=N\NC(=O)CCC(=O)Nc1ccc(C)c(C)c1)C1CC1 | 1 | x | x | x | -1.4
COc1ccc(C2C(C(C)=O)=C(C)Nc3ncnn32)cc1[N+](=O)[O-] (centres undefined) | -1 | x | x | x | 0.7
Cc1csc(SCC(=O)NCc2ccc3c(c2)OCO3)n1 | 3 | 6% | x | x | -1.9
Cc1ccc(N2CCN(C(=O)c3cccs3)CC2)cc1C | 0 | x | x | x | 0.2
Brc1cccc(-c2cnc3n2CCCCC3)c1 | -6 | -11% | 14 | -4 | 2.1
CC(=O)c1ccc(N2CCN(C(=S)Nc3cccc(F)c3)CC2)cc1 | -17 | -6% | -7 | -29 | -1.4
Next results follow:
SMILES | Mtb bLac sens | Mtb H37Rv | Arbovirus inh | YopH PTP inh | RecA intein inh | others
COCCCNC(=S)Nc1cccc(SC)c1 | 1 | 5% | x | x | -4.5
O=C(O)/C=C\C(=O)Nc1ccccc1C#Cc1ccc(Br)cc1 | u | 0% | 3 | -4 | 24
Nc1ccc(C(=O)CC(=O)Nc2ccc(Cl)cc2)cc1 | 10 | x | x | x | 3.9
CCOc1ccccc1NC(=O)C(Sc1nnc2ccccn12)c1ccccc1 (centres undefined) | -1 | 4% | 1 | -29 | -1.5
Cc1ccc(N2CC(C(=O)Nc3ccc4c(c3)OCCO4)CC2=O)cc1C (centres undefined) | 14 | x | x | x | 1.6
c1ccc(-c2ccc(-c3n(-c4ccccn4)c4ccccc4[n+]3-c3ccccn3)cc2)cc1 | x | 16% | 1 | x | 16
O=C(O)CSCC(=O)N1CCCCC1 | 3 | -4% | 3 | x | -0.4
Cc1ccc(C(C(=O)NC2CCCC2)N(Cc2ccccc2)C(=O)c2csnn2)o1 (centres undefined) | 6 | x | x | x | 0.4
O=C(c1ccc(F)cc1)N(Cc1ccco1)C1CCS(=O)(=O)C1 (centres undefined) | -7 | x | x | x | 2.2
COc1cc(C)c(S(=O)(=O)n2ccc(C)n2)cc1C | 0 | -4% | 23 | -1 | 0.7
COc1ccc(OC)c(NC(=O)C23CCC(C)(C(=O)O2)C3(C)C)c1 (centres undefined) | -7 | -3% | -4 | -4 | -0.9
O=C(NC1CCCCC1)c1ccc(S(=O)(=O)NCc2cccnc2)cc1 | 6 | -2% | -1 | -47 | -1.7
Cc1ccc(NC(=S)N(Cc2ccco2)C2CCN(C(C)C)CC2)cc1 | -2 | 2% | 4 | -14 | -3.1
COc1ccc(S(=O)(=O)NCc2ccc(C(=O)O)cc2)cc1 | 0 | 6% | 5 | -67 | -1.2
CC(C)N(Cc1ccccc1)C(=O)COc1ccccc1 | -4 | x | x | x | 1.9
Cn1ncc2c(Nc3cccc4ccccc34)ncnc21 | 12 | -4% | -12 | 4 | -0.1
CCOc1cccc(/C=N/NC(=O)c2cccnc2)c1O | 52 | x | x | x | -1.6
Cc1cc(C)c(NC(=O)CSc2nnc(SCC(=O)Nc3c(C)cc(C)cc3C)n2N)c(C)c1 | -9 | -5% | -7 | -16 | 2.3
COc1ccc(NC(=O)CNS(=O)(=O)c2ccc3nc(C)sc3c2)c(OC)c1 | -11 | -18% | -3 | -49 | 2.7
CC(C)(C)c1ccc(C(=O)NC(=S)NNC(=O)c2cccs2)cc1 | 98 | u | -36 | -5 | 15
CCOc1ccc(C(=O)N2CCCC(c3nc(-c4ccc(C)o4)no3)C2)cc1 (centres undefined) | 1 | x | x | x | -1.5
CCc1ccc(CNC(=O)c2nn(C)c3c2CS(=O)(=O)c2ccccc2-3)cc1 | 1 | x | x | x | -0.3
COc1ccc(CC(NC(C)=O)C(=O)N2CCN(C(=O)N(C(C)C)C(C)C)CC2)cc1 (centres undefined) | -4 | -5% | 1 | 19 | -6.2
O=C(Cn1c(=O)oc2cccnc21)Nc1ccccc1Oc1ccc(Cl)cc1Cl | 71 | -1% | x | x | 8.9
CCN(CC)CCCN(CC(=O)N(C)Cc1ccccc1)C(=O)c1ccc([N+](=O)[O-])cc1 | 5 | x | x | x | -0.3
New compounds follow
SMILES | Mtb bLac sens | Mtb H37Rv | Arbovirus inh | YopH PTP inh | RecA intein inh | others
CC(=O)N(Cc1ccccc1C)c1cccc(C)c1C | -5 | 11% | 0 | x | -1.8
CCNC(=S)NCc1ccc2c(c1)OCO2 | 2 | -12% | 1 | -15 | -4.3
O=C(NCc1nnnn1-c1ccc(F)c(F)c1)C(=O)c1c[nH]c2ccccc12 | 1 | x | x | x | -0.3
CCN(CC)C(=O)COn1c(SCC(=O)N(CC)CC)nc2ccccc2c1=O | -4 | 10% | 5 | 11 | x
CCOc1ccc(C)cc1S(=O)(=O)n1ccc(C)n1 | -9 | 1% | -2 | -32 | -1.0
CCOC(=O)C1CCN(S(=O)(=O)c2ccc3[nH]c(=O)ccc3c2)CC1 | 6 | x | x | x | 3.7
COc1ccc(NC(=O)C(CCSC)NC(N)=O)cc1Cl (centres undefined) | -8 | -8% | -3 | x | -0.4
CNC(=O)NC(=O)C(C)OC(=O)c1cc2c(s1)CCCCC2 (centres undefined) | 78 | x | -2 | -23 | -2.2
CC(C)(C)C(=O)/C=c1\s/c(=C\c2ccc(-c3ccc([N+](=O)[O-])cc3)o2)c(=O)n1CC(=O)NC(N)=O | 79 | >100µM* | -6 | x | -12
COc1ccc(C(=O)c2ccc(N3CCOCC3)cc2)c(OC)c1 | -5 | 0% | 0 | -1 | -2.5
CN(C#N)c1nccc(-c2cccs2)n1 | 6 | -1% | -7 | x | 0.9
CCCCSc1nc(C)cc(SCC(=O)N/N=C/c2ccccc2)n1 | 2 | 5% | -6 | x | -0.2
COc1ccc(OC)c(CNc2ccc3c(c2)CCC3)c1 | 97 | x | x | x | -1.0
Cc1ccc(-c2cnc(C3CC3)o2)cc1S(=O)(=O)Nc1ccccc1 | -1 | x | x | x | 9.3
